Screening results: PubChem, Broad Institute
Vaccinia stage: Vaccinia orthopox stage-specific inhibition; hit rate 0.01% among 89,000; Vaccinia-infected cells, mCherry/Venus stage reporter fluorescence; stronger effect = lower value; some inactives read as strong as hits; activity change (mCherry), % (no concentration beside the values);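 active means mCherry past -33% and 40 or more points under the early reporter, replicates agreeing; inconclusive means past -33% without that gap or agreement; tested in A549 cells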;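 further: scaled between vehicle wells and reference inhibitor wells; 23 nL library stock went into each well; one replicate is shown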
Vaccinia stage Venus: further read-out of Vaccinia stage, marked with its call; activity change (Venus), %; measured here: Venus reporter, other viral stage;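 negative = less Venus signal; first of two replicates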
An asterisk follows results filed as active; ? = inconclusive; / = not tested or not shown; & = joins results of further samples. A portion of the library; count on the stated rates, not on these rows.

SMILES | Vaccinia stage | Vaccinia stage Venus
CC(C)NC(=O)Nc1ccc2c(c1)C(=O)N([C@@H](C)CO)C[C@H](C)[C@H](CN(C)S(=O)(=O)c1ccccc1)OCCCC[C@@H](C)O2 | 10 | 4
C[C@H](CO)N1C[C@H](C)[C@H](CN(C)Cc2ccncc2)Oc2ccc(NC(=O)CCCN(C)C)cc2C1=O | 9 | 3
CO[C@@H]1CN(C)C(=O)c2cc(NC(=O)C3CC3)ccc2OC[C@H](C)N(C(=O)c2cnccn2)C[C@H]1C | -3 | -1
C[C@H](CO)N1C[C@H](C)[C@H](CN(C)Cc2ccc(C(=O)Nc3ccccc3N)cc2)Oc2ccc(NC(=O)Nc3ccc4c(c3)OCO4)cc2CC1=O | 10 | 10
C[C@@H]1CN([C@H](C)CO)C(=O)Cc2cc(NS(=O)(=O)c3ccc(Cl)cc3)ccc2O[C@H]1CN(C)C | 9 | 3
Cc1noc(C)c1NC(=O)Nc1ccc2c(c1)C(=O)N([C@@H](C)CO)C[C@@H](C)[C@@H](CN(C)Cc1ccc(C(=O)O)cc1)O2 | 14 | 1
COc1ccc(CN(C)C[C@H]2Oc3c(NS(=O)(=O)c4ccc(C)cc4)cccc3C(=O)N([C@H](C)CO)C[C@@H]2C)cc1 | -13 | -9
COc1ccccc1CNC(=O)C[C@H]1C[C@H]2c3cc(NC(=O)c4ccc5c(c4)OCO5)ccc3O[C@H]2[C@@H](CO)O1 | 5 | 1
C/C=C/c1cnc2c(c1)C(=O)N([C@@H](C)CO)C[C@H](C)[C@H](CN(C)C(=O)Nc1cccc(OC)c1)O2 | -5 | -6
C[C@@H]1CN([C@H](C)CO)C(=O)CCCn2cc(nn2)CO[C@H]1CN(C)C(=O)c1cc(-c2ccccc2)on1 | 11 | 6
Cc1noc(C)c1S(=O)(=O)N(C)C[C@@H]1OCCCC[C@H](C)Oc2ccc(NS(=O)(=O)c3ccc(Cl)cc3)cc2C(=O)N([C@H](C)CO)C[C@@H]1C | ? | /
C[C@@H]1CN([C@@H](C)CO)C(=O)c2cccc(NC(=O)c3nc4ccccc4s3)c2O[C@H]1CN(C)Cc1ccncc1 | -12 | -12
Cc1noc(C)c1S(=O)(=O)Nc1ccc2c(c1)C(=O)N([C@H](C)CO)C[C@H](C)[C@@H](CN(C)S(=O)(=O)c1ccc(Cl)cc1)OCCCC[C@@H](C)O2 | -12 | -19
CC(=O)N1CC2(C1)[C@H](c1ccccc1)[C@@H](CO)N2C(=O)c1cnccn1 | 10 | 13
O=C(C1CCCC1)N1CC[C@@H]2[C@H]1c1cc(C#Cc3ccc(F)cc3)ccc1N[C@@H]2CO | -7 | 2
CN(C)C(=O)c1ccc(-c2ccccc2[C@@H]2[C@@H](CO)N(C(=O)C3CCC3)[C@H]2C#N)cc1 | 10 | 8
CCCNC(=O)C[C@@H]1CC[C@H]2[C@H](COc3ccc(NC(=O)Cc4ccccc4)cc3C(=O)N2C)O1 | -2 | 3
O=C(C[C@@H]1C=C[C@H](NC(=O)c2cccc(F)c2)[C@H](CO)O1)NCc1ccccc1 | -4 | 4
O=C(C1CC1)N1CC(=O)N2[C@@H](CO)[C@H](c3ccc(-c4cccnc4)cc3)[C@@H]2C1 | 11 | 9
COc1ccccc1NC(=O)N1CCCCN2[C@@H](CO)[C@H](c3ccc(-c4cccc(C)c4)cc3)[C@@H]2C1 | ? | /
Cc1ccc(S(=O)(=O)Nc2ccc3c(c2)C(=O)N([C@H](C)CO)C[C@@H](C)[C@H](CN(C)S(=O)(=O)c2ccc(Cl)cc2)OCCCC[C@H](C)O3)cc1 | ? | /
C[C@H]1CN([C@@H](C)CO)C(=O)Cc2cc(NS(=O)(=O)c3ccc(Cl)cc3)ccc2O[C@H]1CN(C)S(C)(=O)=O | 5 | 2
O=C1CNC[C@H]2[C@@H](c3ccc(C#CC4CCCCC4)cc3)[C@H](CO)N12 | 11 | 8
CCN1[C@H](C(=O)NC2CCC2)[C@@H](CO)[C@@H]2Cn3c(ccc(-c4ccccc4F)c3=O)[C@@H]21 | 12 | 8
C/C=C/c1ccccc1[C@@H]1[C@@H](C#N)N(C(C)=O)[C@@H]1CO | 8 | 4

Going on with the list.
SMILES | Vaccinia stage | Vaccinia stage Venus
Cc1ccc(S(=O)(=O)N(C)C[C@@H]2Oc3c(NS(=O)(=O)c4ccccc4)cccc3C(=O)N([C@H](C)CO)C[C@H]2C)cc1 | 4 | 1
C[C@@H]1CN([C@H](C)CO)C(=O)c2cc(-c3ccccc3)cnc2O[C@@H]1CN(C)C(=O)c1cccnc1 | 8 | 4
Cc1noc(C)c1NC(=O)Nc1ccc2c(c1)C(=O)N([C@@H](C)CO)C[C@H](C)[C@@H](CN(C)S(=O)(=O)c1ccc(Cl)cc1)OCCCC[C@H](C)O2 | 11 | -2
COc1ccc(NC(=O)N[C@H]2C=C[C@@H](CC(=O)NC3CCCCC3)O[C@@H]2CO)cc1 | 3 | 9
CN(C)C(=O)C[C@H]1C[C@@H]2c3cc(NC(=O)Nc4ccc(C(F)(F)F)cc4)ccc3O[C@@H]2[C@@H](CO)O1 | -19 | -12
O=C(N[C@H]1CC[C@@H](CCn2cc(Cc3ccccc3)nn2)O[C@@H]1CO)c1ccccn1 | 2 | 10
C[C@H](CO)N1C[C@H](C)[C@@H](CN(C)Cc2ccc(Cl)c(Cl)c2)Oc2ccc(NC(=O)C3CCCCC3)cc2C1=O | -15 | -12
C[C@H]1CN([C@@H](C)CO)C(=O)CCCn2cc(nn2)CO[C@@H]1CN(C)C(=O)CCC(F)(F)F | 7&20 | 1&14
C[C@@H]1CN([C@@H](C)CO)C(=O)Cc2cc(NC(=O)c3ccncc3)ccc2O[C@@H]1CN(C)Cc1ccc2c(c1)OCO2 | 6 | 1
O=C(Nc1ccc(C(F)(F)F)cc1)N[C@@H]1CC[C@@H](CC(=O)N2CCCCC2)O[C@H]1CO | -2 | -3
CC(C)NC(=O)Nc1ccc2c(c1)C(=O)N([C@H](C)CO)C[C@H](C)[C@H](CN(C)C)OCCCC[C@H](C)O2 | 11 | -3
Cn1cnc(S(=O)(=O)N2CCCCN3[C@@H](CO)[C@H](c4ccc(C#CC5CCCC5)cc4)[C@@H]3C2)c1 | -16 | -13
N#C[C@H]1[C@H](c2ccc(-c3ccccc3F)cc2)[C@H](CO)N1C(=O)c1ccccn1 | 3 | -2
CN1c2ccc(-c3cccc(C#N)c3)cc2[C@H]2[C@H](CCN2S(=O)(=O)c2ccccc2F)[C@H]1CO | ? | /
O=S(=O)(N[C@@H]1CC[C@@H](CCn2cc(C3(O)CCCC3)nn2)O[C@@H]1CO)c1ccccc1 | 3 | 4
CC(C)NC(=O)Nc1ccc2c(c1)CC(=O)N([C@@H](C)CO)C[C@H](C)[C@@H](CN(C)Cc1ccc(-c3ccccc3)cc1)O2 | -15 | -11
CO[C@H]1CN(C)C(=O)c2ccc(NS(C)(=O)=O)cc2OC[C@@H](C)N(Cc2ccccc2)C[C@H]1C | -3 | -8
OC[C@H]1[C@H](c2ccc(-c3ccccc3F)cc2)[C@@H]2CN(Cc3cccnc3)CCCCN12 | -18 | -17
CO[C@@H]1CN(C)C(=O)c2cc(NC(=O)C3CC3)ccc2OC[C@@H](C)N(Cc2ccccc2C(=O)O)C[C@H]1C | 3 | 4
COc1cccc(-c2ccc([C@H]3[C@H](CO)N4CCCCN(Cc5cncnc5)C[C@@H]34)cc2)c1 | 10 | 1
CO[C@H](CN(C)C(=O)Nc1ccc(Cl)cc1)[C@@H](C)CN(Cc1ccccc1Cl)[C@H](C)CO | -18 | -8
CC(C)NC(=O)Nc1ccc2c(c1)C(=O)N([C@@H](C)CO)C[C@H](C)[C@H](CN(C)C(=O)Nc1ccc3c(c1)OCO3)O2 | 29 | 17
CC(C)c1cn(CC[C@@H]2CC[C@H](NS(=O)(=O)c3ccc(Cl)cc3)[C@H](CO)O2)nn1 | 7 | 8
CC(C)NC(=O)N[C@H]1CC[C@@H](CC(=O)N2CCCCC2)O[C@@H]1CO | -1 | -2
C[C@@H]1CN([C@@H](C)CO)C(=O)c2cc(C#Cc3cccc(F)c3)cnc2O[C@@H]1CN(C)C(=O)C1CC1 | 0 | -5

Quoted from the listing (nine entries):
SMILES | Vaccinia stage | Vaccinia stage Venus
Cc1ccc(S(=O)(=O)N(C)C[C@@H]2Oc3c(NS(=O)(=O)c4ccccc4)cccc3C(=O)N([C@H](C)CO)C[C@H]2C)cc1 | 4 | 1
C[C@@H]1CN([C@H](C)CO)C(=O)c2cc(-c3ccccc3)cnc2O[C@@H]1CN(C)C(=O)c1cccnc1 | 8 | 4
Cc1noc(C)c1NC(=O)Nc1ccc2c(c1)C(=O)N([C@@H](C)CO)C[C@H](C)[C@@H](CN(C)S(=O)(=O)c1ccc(Cl)cc1)OCCCC[C@H](C)O2 | 11 | -2
COc1ccc(NC(=O)N[C@H]2C=C[C@@H](CC(=O)NC3CCCCC3)O[C@@H]2CO)cc1 | 3 | 9
CN(C)C(=O)C[C@H]1C[C@@H]2c3cc(NC(=O)Nc4ccc(C(F)(F)F)cc4)ccc3O[C@@H]2[C@@H](CO)O1 | -19 | -12
O=C(N[C@H]1CC[C@@H](CCn2cc(Cc3ccccc3)nn2)O[C@@H]1CO)c1ccccn1 | 2 | 10
C[C@H](CO)N1C[C@H](C)[C@@H](CN(C)Cc2ccc(Cl)c(Cl)c2)Oc2ccc(NC(=O)C3CCCCC3)cc2C1=O | -15 | -12
C[C@H]1CN([C@@H](C)CO)C(=O)CCCn2cc(nn2)CO[C@@H]1CN(C)C(=O)CCC(F)(F)F | 7&20 | 1&14
C[C@@H]1CN([C@@H](C)CO)C(=O)Cc2cc(NC(=O)c3ccncc3)ccc2O[C@@H]1CN(C)Cc1ccc2c(c1)OCO2 | 6 | 1

Additional structures
SMILES | Vaccinia stage | Vaccinia stage Venus
Cc1ccccc1S(=O)(=O)N1C[C@@H](O)COC[C@@H]2O[C@@H](CC(=O)NCc3ccccc3Cl)CC[C@H]21 | -23 | 2
O=C(Nc1ccc(F)cc1)N[C@H]1CC[C@@H](CCn2cc(-c3ccc(F)cc3)nn2)O[C@H]1CO | -17 | -10
C[C@@H]1CN([C@@H](C)CO)C(=O)c2cccc(NC(=O)c3cnccn3)c2O[C@@H]1CN(C)Cc1ccccc1 | ? | /
CNC[C@@H]1OCCCC[C@H](C)Oc2ccc(NC(=O)Nc3ccc4c(c3)OCO4)cc2C(=O)N([C@H](C)CO)C[C@@H]1C | -4 | 0
C[C@@H]1CCCCO[C@@H](CN(C)C(=O)c2ccccc2)[C@H](C)CN([C@@H](C)CO)C(=O)c2cc(N(C)C)ccc2O1 | -25 | -11
COC(=O)[C@H]1[C@H](CO)[C@H]2Cn3c(ccc(-c4ccncc4)c3=O)[C@H]2N1Cc1cccc(F)c1 | 3 | 15
CN(C)C(=O)c1cccc(-c2ccc([C@H]3[C@H]4CN(S(C)(=O)=O)CCCCN4[C@H]3CO)cc2)c1 | 11 | 0
C[C@@H]1CN([C@H](C)CO)C(=O)Cc2cc(NC(=O)Nc3ccc(C(F)(F)F)cc3)ccc2O[C@@H]1CN(C)S(=O)(=O)c1cn(C)cn1 | 1 | -2
O=C(C[C@H]1C[C@H]2c3cc(NC(=O)C4CCC4)ccc3O[C@H]2[C@H](CO)O1)NCc1ccc(-c2ccccc2)cc1 | 6 | 2
Cc1noc(C)c1NC(=O)Nc1cccc2c1O[C@@H](CN(C)CC1CCCCC1)[C@@H](C)CN([C@@H](C)CO)C2=O | 5 | 4
C[C@H]1CN([C@@H](C)CO)C(=O)c2cccc(NC(=O)C3CCCCC3)c2O[C@@H]1CN(C)C(=O)Nc1ccc2c(c1)OCO2 | 18 | 13
C[C@@H]1CCCCO[C@@H](CN(C)S(=O)(=O)c2cccs2)[C@@H](C)CN([C@@H](C)CO)C(=O)c2cc(NC(=O)Nc3ccc(C(F)(F)F)cc3)ccc2O1 | 33 | 29
C[C@@H]1CN([C@@H](C)CO)C(=O)c2cc(Br)cnc2O[C@@H]1CN(C)C(=O)c1ccccc1F | 3 | -3
Cc1cccc(S(=O)(=O)N2CCCCN3[C@H](CO)[C@@H](c4ccc(C#CC(C)C)cc4)[C@@H]3C2)c1 | -2 | -8
C[C@@H]1CCCCO[C@@H](CN(C)Cc2ccc3c(c2)OCO3)[C@@H](C)CN([C@@H](C)CO)C(=O)c2cc(NC(=O)Nc3ccc4c(c3)OCO4)ccc2O1 | ? | /
C[C@@H]1CN([C@H](C)CO)C(=O)c2cccc(NC(=O)Nc3ccc(C(F)(F)F)cc3)c2O[C@H]1CN(C)S(=O)(=O)c1ccc(F)cc1 | -32 | -28
CCCNC(=O)N1CC(=O)N2[C@H](CO)[C@H](c3ccc(C#Cc4ccc(F)cc4)cc3)[C@@H]2C1 | -6 | 2
CN1c2ccc(Br)cc2[C@@H]2[C@@H](CCN2C(=O)Nc2ccccc2F)[C@@H]1CO | -14 | -4
CO[C@@H]1CN(C)C(=O)c2ccc(NC(=O)Cc3ccccc3)cc2OC[C@H](C)N(CC2CC2)C[C@@H]1C | -1 | -5
C[C@H](CO)N1C[C@H](C)[C@@H](CN(C)S(=O)(=O)c2cn(C)cn2)Oc2ccc(NS(=O)(=O)c3ccccc3)cc2C1=O | 18 | 12
C[C@H](CO)N1C[C@H](C)[C@@H](CN(C)Cc2ccc(C(F)(F)F)cc2)Oc2c(NC(=O)c3ccc(-c4nccs4)cc3)cccc2C1=O | -13 | -7
Cc1ccc(S(=O)(=O)Nc2ccc3c(c2)C(=O)N([C@@H](C)CO)C[C@@H](C)[C@H](CN(C)Cc2ccc(Cl)c(Cl)c2)O3)cc1 | -25 | -25
O=C(Cc1ccccn1)N1CC(=O)N2[C@H](CO)[C@@H](c3ccc(C#CC4CC4)cc3)[C@@H]2C1 | 1 | -1
C[C@H](CO)N1C[C@H](C)[C@@H](CN(C)Cc2ccc(-c3ccccc3)cc2)Oc2ccc(NS(=O)(=O)c3ccc(F)cc3)cc2C1=O | ? | /
CNC[C@H]1Oc2c(NC(=O)Nc3ccc(F)cc3)cccc2C(=O)N([C@@H](C)CO)C[C@@H]1C | 10 | 9
C[C@H]1CN([C@@H](C)CO)C(=O)c2cccc(NC(=O)C3CCCCC3)c2O[C@H]1CN(C)C(=O)Nc1ccccc1 | 1 | 10
